# Bioassay records: PubChem, Johns Hopkins Ion Channel Center
# KCNQ2 inh: KCNQ2 potassium channel inhibitors, primary screen, cell-based, CHO-K1, FluxOR thallium flux, B-score (AID 2156). hit rate 1.1% among 310,000. B-score at 10 µM. 20 min; active compounds read low; only compounds with negative scores are shown here; some inactives read as strong as hits;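 active = fluorescence ratio B-score at most minus 3 library SDs, with starting brightness B-score within 2 library SDs, cut at about -5.5 in these data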
# Target sequence (O88943 whole entry, looked up): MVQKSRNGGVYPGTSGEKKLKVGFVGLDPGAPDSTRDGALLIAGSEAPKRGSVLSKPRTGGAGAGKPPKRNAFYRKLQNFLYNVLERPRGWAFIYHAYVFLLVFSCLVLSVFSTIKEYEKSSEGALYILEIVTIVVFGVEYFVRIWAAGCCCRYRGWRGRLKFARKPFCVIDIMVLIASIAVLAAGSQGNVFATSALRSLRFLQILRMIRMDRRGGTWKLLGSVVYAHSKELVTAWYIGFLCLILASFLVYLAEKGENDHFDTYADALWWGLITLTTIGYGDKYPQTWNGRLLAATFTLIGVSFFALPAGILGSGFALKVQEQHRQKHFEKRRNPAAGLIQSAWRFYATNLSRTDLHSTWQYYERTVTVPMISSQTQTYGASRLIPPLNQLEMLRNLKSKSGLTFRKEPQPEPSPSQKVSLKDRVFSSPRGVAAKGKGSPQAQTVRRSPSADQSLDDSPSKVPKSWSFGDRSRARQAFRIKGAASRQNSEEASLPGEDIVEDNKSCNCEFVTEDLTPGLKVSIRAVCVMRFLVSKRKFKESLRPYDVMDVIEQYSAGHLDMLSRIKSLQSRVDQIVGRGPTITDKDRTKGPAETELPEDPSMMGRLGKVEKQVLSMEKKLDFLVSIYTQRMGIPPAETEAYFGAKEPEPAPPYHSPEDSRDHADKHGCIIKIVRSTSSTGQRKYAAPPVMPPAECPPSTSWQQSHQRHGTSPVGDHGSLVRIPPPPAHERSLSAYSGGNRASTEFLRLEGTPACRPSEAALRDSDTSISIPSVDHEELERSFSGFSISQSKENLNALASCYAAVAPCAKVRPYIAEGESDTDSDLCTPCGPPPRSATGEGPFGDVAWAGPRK
# KCNQ2 inh baseline: also measured in KCNQ2 inh; calls as there; B-score; measured here: initial fluorescence intensity artifact check;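 brightness before thallium and not channel activity; 0 = typical well and far values either way flag optical interference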
# Starred values were filed as active, the others as inactive; i = inactive.
nr	SMILES	KCNQ2 inh	KCNQ2 inh baseline
1	CC(=O)Oc1ccccc1N(C(C)=O)S(=O)(=O)c1cccc([N+](=O)[O-])c1	i	0.09
2	Cc1c(C(=O)OCCOC(C)C)[nH]c2c1C(=O)CC(C)(C)C2	i	-0.88
3	CCNc1nc(NC(C)C)nc(N(n2cnnc2)S(=O)(=O)c2ccc(C)cc2)n1	i	-1.4
4	COc1ccc(NC(=O)N2CCc3cc(OC)c(OC)cc3C2)cc1	i	-0.13
5	O=C(Nc1cccc(-n2cccn2)c1)C1CCCN(Cc2ccccc2F)C1 (stereo not given)	i	-1.8
6	COC(=O)c1cc(C(=O)N2CCN(c3cccc(C)c3C)CC2)cc([N+](=O)[O-])c1	i	1.8
7	Cc1ccc(CN2CC(C(=O)N3CC=C(c4ccccc4)CC3)CC2=O)cc1 (stereo not given)	i	0.19
8	N/C(=N\OC(=O)Cc1ccccc1[N+](=O)[O-])c1ccc(Br)cc1	i	-0.56
9	O=C(OCC(=O)N1CCCc2ccccc21)c1ccc(C(F)(F)F)cc1	i	-1.4
10	Cc1ccc2nc3c(c(Nc4ccccc4)c2c1)CCC3	i	-1.9
11	COc1ccc(COCC(O)CN2CCCCC2)cc1OC (stereo not given)	i	1.6
12	Cc1cccc(NC(=O)CSc2cn[nH]n2)c1	i	3.7
13	Nc1ccc(N2CCCCC2)cc1N1CCCCC1	i	-0.71
14	CCOC(=O)C(C)/C(C)=N/NC(=O)c1cc2ccccc2cc1O (stereo not given)	i	-2
15	Cc1ccccc1NC(=O)CCSc1nnnn1-c1ccccc1	i	3.4
16	Cc1c(Br)c(-c2n[nH]c(=S)n2Cc2ccco2)nn1C	i	-0.32
17	O=C(NCCCO)c1ccc(CSc2nc3ccccc3c(=O)[nH]2)cc1	i	1.4
18	COc1ccc(NC(=O)Nc2ccccc2SC)cc1	i	-1.8
19	Brc1ccccc1Cn1c(-c2cncs2)nc2ccccc21	i	-1.2
20	Cc1onc(-c2c(Cl)cccc2Cl)c1C(=O)N=C(N)N1CCCC1	i	0.51
21	CCOC(=O)C(NC(=O)c1ccccc1Cl)(Nc1sc2c(c1C(N)=O)CCC2)C(F)(F)F (stereo not given)	i	1.2
22	O=C(O)c1ccccc1OCCOc1ccccc1	i	2.4
23	COc1cccc(-n2c(=O)n(Cc3ccccc3)c(=O)c3[nH]cnc32)c1	i	0.95
24	CCOC(=O)c1c(NC(=S)N2CCN(C)CC2)sc(C)c1-c1ccccc1	i	-0.05
25	O=C(c1cn(-c2ccccc2)nc1-c1cccc([N+](=O)[O-])c1)N1CCCCC1	i	-1.4
26	CCOc1ccccc1C(=O)NC(CO)C(=O)O (stereo not given)	i	0.58
27	CCCC(=O)NC(c1cccs1)c1cc(Cl)c2cccnc2c1O (stereo not given)	i	-0.69
28	CC(=O)Nc1ccc(NC(=O)C(C)OC(=O)/C=C/c2cn(-c3ccccc3)nc2-c2cccnc2)cc1 (stereo not given)	i	-0.54
29	O=C(NC1CCS(=O)(=O)C1)c1ccc(S(=O)(=O)NCC2CCCO2)cc1 (stereo not given)	i	-0.81
30	COc1ccc(CNC(=S)Nc2ccc(F)c(Cl)c2)cc1OC	i	0.71
31	CC(C)CC1(C)N=C(c2ccccc2)C(=S)N1 (stereo not given)	i	0.33
32	Cc1ccc2c(CN3CCN(S(=O)(=O)/C=C/c4ccccc4)CC3)cc(=O)oc2c1	i	-0.48
33	CC1CC1C(=O)Nc1nc(-c2cccs2)c(-c2cccs2)s1 (stereo not given)	i	0.8
34	CC1CN(S(=O)(=O)c2ccc(F)cc2)C(C)N1C(=O)N1CCOCC1 (stereo not given)	i	0.16
35	CCCc1cc(-c2ccc(O)c(OCC)c2)c(C#N)c(N)n1	i	-0.29
36	O=C(NNc1ncnc2c1cnn2-c1ccccc1)c1cccs1	i	1.3
37	Cc1ccc(S(=O)(=O)N2CCCCC2)cc1C(=O)NC1CCCCC1	i	0.76
38	CCOC(=O)Cc1csc(NC(=O)Cc2ccc(Cl)cc2)n1	i	0.15
39	CCCC[C@H](CN[C@@H](CNC)[C@H](C)CC)NCCC12CCC(CC1)C2	i	-0.16
40	COC(=O)c1ccccc1NC(=O)CSc1n[nH]c(-c2ccco2)n1	i	0.03
41	COc1ccc(/C=N/Nc2nc(C(=O)O)cs2)cc1	i	-1.7
42	c1ccc(C2CCC(N3CCN(c4ccccc4)CC3)CC2)cc1 (stereo not given)	i	2.4
43	O=C(CN1C(=O)COc2ccccc21)NCc1ccccn1	i	-2.5
44	CCCOc1ccc(C(=O)NC(=S)NNC(=O)c2c(-c3ccccc3)noc2C)cc1	i	2
45	CC1CCC2(CC1)NC(=O)N(CC(=O)Nc1sc3c(c1C(N)=O)CCC3)C2=O (stereo not given)	i	3.4
46	CC(C)c1nc2sc3c(NCc4ccco4)ncnc3c2c2c1COC(C)(C)C2	i	-0.21
47	CCOC(=O)CN1C2=NCCCN2c2ccccc21	i	-0.68
48	CC(C)(C)c1ccc(C2CC2C(=O)N/N=C\c2cc3ccccc3nc2Cl)cc1 (stereo not given)	i	-1.2
49	Cc1nc2ccccc2n1CC(=O)NCCN1CCOCC1	i	0.69
50	CC1=C(C(=O)Nc2ccc(CC(=O)NCc3ccccc3C)cc2)SCCO1	i	0.3

# Additional structures follow.
nr	SMILES	KCNQ2 inh	KCNQ2 inh baseline
51	O=C(COc1ccc(S(=O)(=O)NC2CCCCC2)cc1)NC1CCCCC1	i	2.5
52	N/C(=N\OC(=O)c1ccccc1Cl)c1cccc([N+](=O)[O-])c1	i	0.16
53	CCOC(=O)c1cnc2ccc(OCC)cc2c1NCc1ccccc1	i	0.39
54	Cc1ccc2c(c1)N(CC(=O)Nc1ccccc1F)C(=O)CO2	i	-0.65
55	CC(Nc1ccc(Br)cn1)c1cc(Cl)ccc1O (stereo not given)	i	0.53
56	NNc1nc(Nc2ccc([N+](=O)[O-])cc2)nc(N2CCCCCC2)n1	i	-0.76
57	CCCN(c1nc(C)cc(OC)n1)S(=O)(=O)c1ccccc1	i	-1
58	COc1ccccc1N(CC(=O)Nc1ccc2c(c1)OCO2)S(=O)(=O)c1ccccc1	i	-0.5
59	CCc1ccc(-n2nnnc2SCC(=O)NNC(=O)c2ccco2)cc1	i	0.16
60	COc1ccc(-c2cc(=O)c3ccccc3s2)cc1	i	0.12
61	Cc1c(NC(=O)COC(=O)CCc2c[nH]c3ccccc23)c(=O)n(-c2ccccc2)n1C	i	0.25
62	CCOc1cc(C(=O)Nc2cc(C)ccc2C)ccc1OCC(=O)N1CCCCC1	i	0.15
63	Cc1ccc(-n2c(=O)c3sccc3n(CC(=O)NC3CCCC3)c2=O)cc1	i	-1.7
64	CCOC(=O)c1ccc(S(=O)(=O)N2CCN(C)CC2)cc1	i	-0.05
65	CCOC(=O)c1c(C)[nH]c(C)c1C(=O)COC(=O)c1ccc(O)cc1	i	-1.1
66	COc1cccc(C2=NOC(C(=O)NC(C)(C)C)C2)c1 (stereo not given)	i	0.28
67	O=C(COC(=O)c1cc([N+](=O)[O-])ccc1N1CCOCC1)NC1CCCCC1	i	1.4
68	Cc1c(Cl)cnn1CC(=O)NC1C(=O)N2C(C(=O)O)=C(CSc3nnnn3C)CSC12 (stereo not given)	i	2.2
69	CCOC(=O)N1CCN(C(=O)C2CC(c3cc(OC)ccc3OC)=NO2)CC1 (stereo not given)	i	-1.7
70	CCOC(=O)C/C(N)=N/N(C)c1ncc(C(F)(F)F)cc1Cl	i	0.66
71	O=S(=O)(c1ccccc1)N1CCN(Cc2ccc(Cl)cc2)CC1	i	0.49
72	CCOc1ccc(N(CC)C(=O)COc2cc(=O)n(C)c3ccccc23)cc1	i	-0.9
73	COc1ccc(-c2nn(-c3ccccc3)cc2C(=O)Nc2nccs2)cc1	i	-0.22
74	COc1cccc(C(=O)N/N=C(/c2ccccc2)c2ccccn2)c1	i	-0.53
75	CCN(CC(=O)NCc1ccc(Cl)cc1)C(=O)CSCC(=O)Nc1ccc(C)cc1	i	-1.1

# Reformatted in transposed form: part of the list above
71) O=S(=O)(c1ccccc1)N1CCN(Cc2ccc(Cl)cc2)CC1
72) CCOc1ccc(N(CC)C(=O)COc2cc(=O)n(C)c3ccccc23)cc1
73) COc1ccc(-c2nn(-c3ccccc3)cc2C(=O)Nc2nccs2)cc1
74) COc1cccc(C(=O)N/N=C(/c2ccccc2)c2ccccn2)c1
75) CCN(CC(=O)NCc1ccc(Cl)cc1)C(=O)CSCC(=O)Nc1ccc(C)cc1

Assay by compound	71	72	73	74	75
KCNQ2 inh	i	i	i	i	i
KCNQ2 inh baseline	0.49	-0.9	-0.22	-0.53	-1.1

# Remaining list, next part:
nr	SMILES	KCNQ2 inh	KCNQ2 inh baseline
76	CC1CC1C(=O)Nc1nc(-c2ccccc2)cs1 (stereo not given)	i	0.47
77	CCN(N)C(=S)Nc1ccc(F)cc1	i	0.45
78	CCOCC(=O)Nc1c(C(=O)Nc2ccc3c(c2)OCCO3)oc2ccccc12	i	-0.6
79	CN(C)CCCN(C(=O)COc1ccccc1)c1nc2cc3c(cc2s1)OCCO3	i	0.43
80	CNc1nc(SCc2ccccc2Cl)nc2c1CCCC2	i	0.99
81	COCCn1c(-c2ccc(SC)cc2)nc2c1c(=O)[nH]c(=O)n2CC(C)C	i	-0.82
82	NC(=O)C1CCN(C(c2ccccc2)c2nnnn2C2CCCC2)CC1 (stereo not given)	i	0.34
83	COC(=O)C1CSc2[nH]c(=O)sc2C1c1ccc(OC)c(OC)c1 (stereo not given)	i	-0.04
84	Cc1ccc(NC(=O)COC(=O)C2CCN(c3ccc(C(F)(F)F)cn3)CC2)cc1C	i	-2.2
85	CCN(CC)S(=O)(=O)c1ccc(OC)c(NC(=O)c2ccc(=O)[nH]c2)c1	i	-1.2
86	CC(C)[C@H]1CN(C)CCN1Cc1cn(C)nc1-c1cccc(Cl)c1	i	1.4
87	CC(C)/C=C1\CCCCC1N(C)C(=O)NC(C)C (stereo not given)	i	-0.92
88	N#CCC(=O)Nc1ccc(C(=O)N2CCN(c3ccccn3)CC2)cc1	i	-1.1
89	C=CCNC(=S)Nc1cccc2[nH]ncc12	i	-0.96
90	COc1ccccc1NC(=O)CSc1nc(=O)n2cc(C)ccc2n1	i	0.67
91	CN1C(=O)C(CC(N)=O)N(NC(=O)c2ccc(Cl)cc2)C1=S (stereo not given)	i	-1.8
92	Cc1ccc(NS(=O)(=O)c2c(C)[nH]c(C)c2C(=O)N2CCCCC2)cc1F	i	-0.36
93	COc1cc(NC(=O)C2CSC3(C)CCC(=O)N23)c(OC)cc1Cl (stereo not given)	i	-0.07
94	Cc1cccc(N=Nc2c(C)nn(-c3ccccc3)c2N)c1C	i	1
95	Cc1ccc(-c2cc(C(=O)N/N=C/c3c(C)nn(C)c3C)c3ccccc3n2)cc1C	i	-0.56
96	O=C(N/N=C1\CC2CC=CC12)c1ccccc1Cl (stereo not given)	i	1.1
97	Cc1ccc(OCC(=O)N2CCc3ccccc3C2)c([N+](=O)[O-])n1	i	-0.88
98	CC(=O)c1ccc(N2CCN(CN3C(=O)CC4(CCCC4)C3=O)CC2)c(F)c1	i	0.11
99	Cc1ccc(CN2CCN(CC(=O)N/N=C/c3ccccc3F)CC2)cc1	i	-0.01
100	Cc1nc(NC(=O)CN2CCC(O)(c3ccc(F)cc3)CC2)sc1C	i	-1.2

# Four compounds from above, arranged by their value in KCNQ2 inh baseline, falling:
No.	molecule	KCNQ2 inh baseline
80	CNc1nc(SCc2ccccc2Cl)nc2c1CCCC2	0.99
77	CCN(N)C(=S)Nc1ccc(F)cc1	0.45
93	COc1cc(NC(=O)C2CSC3(C)CCC(=O)N23)c(OC)cc1Cl (stereo not given)	-0.07
85	CCN(CC)S(=O)(=O)c1ccc(OC)c(NC(=O)c2ccc(=O)[nH]c2)c1	-1.2

# Next compounds
nr	SMILES	KCNQ2 inh	KCNQ2 inh baseline
101	COc1ccc(C2CC(c3ccc4ccccc4c3)=NN2C(=O)CSc2ncccn2)cc1 (stereo not given)	i	-0.61
102	CCOC(=O)/C(C#N)=C\c1ccc(N2CCN(C/C=C/c3ccccc3)CC2)cc1	i	1.3
103	COc1ccc(C2(O)CCN(C(=O)c3ccc4c(c3)OCO4)CC2)cc1	i	-3.4
104	CSc1ccc(Cl)c(C(=O)NCC(C)C)c1	i	-0.24
105	CCOc1ccc(-c2cnc(N)n2C)cc1	i	-0.91
106	CCOC(=O)Cn1c(-c2cccnc2Cl)nc2cc(C)c(C)cc21	i	-1.3
107	COc1ccc(-n2cnc3cc(NCc4cccs4)ccc32)cc1	i	0.01
108	COc1ccc(CNC(=O)Cc2csc(NC(=O)Nc3ccccc3OC)n2)cc1	i	-0.74
109	C=CCOc1ccc(C(c2c(C)n(C)n(-c3ccccc3)c2=O)c2c(C)n(C)n(-c3ccccc3)c2=O)cc1	i	-1.5
110	COc1cc(NS(=O)(=O)c2ccc(NC(=S)NC(=O)c3ccccc3)cc2)nc(OC)n1	i	1.9
111	Cc1cc(NC(=O)CC(F)(F)F)n(-c2ccccc2)n1	i	-0.12
112	Cc1ccc(/C(O)=C2/C(=O)C(=O)N(c3ccccn3)C2c2ccc(F)cc2)cc1 (stereo not given)	i	-0.55
113	Cc1n[nH]c(C)c1S(=O)(=O)N(CC(=O)N1CCc2ccccc21)c1ccc(C(C)C)cc1	i	0.13
114	COc1cccc(-c2nnc(SCC(N)=O)n2-c2ccc(Cl)cc2)c1	i	-1.2
115	Cc1cc(C)c2c(N)c(C(=O)Nc3ccc(F)cc3)sc2n1	i	-0.45
116	Nn1c(SCC(=O)Nc2ccc3c(c2)OCCO3)nncc1=O	i	2.1
117	Nc1nnc(SCC(=O)Nc2ccccc2N2CCOCC2)s1	i	0.47
118	C/C(=N\O)C1(C)N(O)C(C)(C)C(c2ccco2)=[N+]1[O-] (stereo not given)	i	-0.05
119	CCN1C(=O)[C@H]2[C@@H](c3ccc(-c4ccccc4)cc3)N3CCC[C@@]3(C(=O)OC)[C@H]2C1=O	i	0.65
120	O=S(=O)(c1ccc(Cl)cc1)N1CCC(O)(CN2CCN(Cc3ccccc3)CC2)CC1	i	-0.92
121	Cc1nc2c(cc(Oc3ccc(S(=O)(=O)N4CCOCC4)cn3)c3ccsc32)s1	i	-0.19

# Not all compounds are listed; rates above refer to the full screens.
